# Screening data (PubChem BioAssay)
# E coli growth – blocks Escherichia coli growth. OD600, 23 h; stronger effect = lower value. OD600 absorbance (concentration not given with the values). hit rate 0.21% among 330,000;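 active means OD600 absorbance below the run mean of sample wells minus 3.6 SD, in any replicate, cut at about 0.56 in these data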;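 further: stock transfer was 300 nL into about 60 µL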
# LANA-H2A inh – blocks KSHV LANA binding to histone H2A/H2B; cell-free LANA-H2A/H2B peptide, fluorescence polarization; inhibition, % (no concentration beside the values); hit rate 0.6% among 320,000; in the data active means inhibition mostly above about 10%, no sharp cut-off; inactive means mostly below about 6.7%;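 further: stock transfer was 7.5 nL into about 10 µL; 0% = median of vehicle wells and 100% = median of positive control wells; one replicate is shown; the record names a cut of 25% in any replicate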
# Target sequence (Q9QR71 whole entry, looked up): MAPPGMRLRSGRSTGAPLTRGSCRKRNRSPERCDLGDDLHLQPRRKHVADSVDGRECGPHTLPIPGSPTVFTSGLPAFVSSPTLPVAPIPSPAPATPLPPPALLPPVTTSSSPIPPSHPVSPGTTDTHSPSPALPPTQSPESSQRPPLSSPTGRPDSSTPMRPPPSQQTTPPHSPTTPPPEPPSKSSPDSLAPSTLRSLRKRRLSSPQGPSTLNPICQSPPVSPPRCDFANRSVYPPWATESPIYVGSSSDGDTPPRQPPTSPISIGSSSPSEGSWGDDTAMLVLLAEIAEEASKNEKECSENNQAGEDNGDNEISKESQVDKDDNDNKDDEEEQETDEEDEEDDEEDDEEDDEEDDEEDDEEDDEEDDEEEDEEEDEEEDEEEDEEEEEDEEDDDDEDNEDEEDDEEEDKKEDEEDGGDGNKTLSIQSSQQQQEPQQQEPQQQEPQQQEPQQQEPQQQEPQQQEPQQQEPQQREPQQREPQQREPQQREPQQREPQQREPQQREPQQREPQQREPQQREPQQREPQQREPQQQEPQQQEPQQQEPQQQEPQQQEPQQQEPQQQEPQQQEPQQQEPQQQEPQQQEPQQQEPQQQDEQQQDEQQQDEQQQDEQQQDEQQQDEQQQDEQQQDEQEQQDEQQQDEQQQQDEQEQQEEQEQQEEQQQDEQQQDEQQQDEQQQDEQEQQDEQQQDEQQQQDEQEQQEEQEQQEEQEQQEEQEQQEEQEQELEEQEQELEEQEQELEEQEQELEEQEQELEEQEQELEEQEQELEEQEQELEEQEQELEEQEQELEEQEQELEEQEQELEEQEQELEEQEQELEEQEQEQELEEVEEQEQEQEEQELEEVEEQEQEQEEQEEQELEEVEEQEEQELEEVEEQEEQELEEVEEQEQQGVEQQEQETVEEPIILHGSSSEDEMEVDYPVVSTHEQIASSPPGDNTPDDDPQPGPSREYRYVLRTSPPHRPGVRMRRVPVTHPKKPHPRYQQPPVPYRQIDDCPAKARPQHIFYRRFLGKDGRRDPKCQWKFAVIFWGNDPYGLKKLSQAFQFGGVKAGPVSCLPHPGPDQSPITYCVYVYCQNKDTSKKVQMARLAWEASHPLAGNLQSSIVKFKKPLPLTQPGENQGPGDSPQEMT
# ALR inh – blocks human ALR sulfhydryl oxidase activity; P55789; purified ALR, DTT oxidation, H2O2 HRP-luminol luminescence; inhibition, % (concentration not given with the values); hit rate 3.8% among 290,000; AID 485317;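 active means mean and each replicate at 75% or more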;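 further: stock transfer was 7.5 nL into about 7.5 µL; 0% = neutral wells and 100% = wells with inactivated enzyme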
# B2AR ag – agonists of human beta-2 adrenergic receptor inducing internalization; P07550; Am2.2-beta2AR cells, FAP receptor internalization, flow cytometry; reference of the scale not given here; response, % (concentration not given with the values); hit rate 0.43% among 340,000; AID 504454;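 active means response above a set limit, near 3 SD of response in nonfluorescent compounds, cut at about 42% in these data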;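 further: stock transfer was 100 nL into about 11 µL; a reference agonist was the positive control; negative values mostly stem from fluorescent compounds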
# UCH37 inh – inhibitors of human deubiquitinating enzyme UCH37; AID 588478; hit rate 0.33% among 330,000; inhibition, % (no concentration beside the values); Q9Y5K5; purified proteasome/UCH37, Ub-AMC cleavage fluorescence;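 active means mean of two replicates above 20%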;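 further: 0% = compound-free wells with enzyme and 100% = wells lacking proteasome; stock transfer was 100 nL into about 20 µL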
#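 Assay system: Proteasome-bound UCH37. Buffer or medium: pH 7.4 Tris-HCl (50 mM) with ovalbumin, ATP-MgCl2, DTT. Incubation: 30 min preincubation with enzyme, 25 min cleavage at room temperature. Measured by: fluorescence, ex 355 nm, em 460 nm. Read-out basis: percent inhibition. Control set: wells without proteasome as full block, compound-free enzyme plus substrate as uninhibited.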
# FGF22 binding – shifts melting point of recombinant human FGF22 | Q9HCT0 | recombinant FGF22 thermal shift, SYPRO orange fluorescence; percent of sucrose octasulfate shift, DMSO zero | calls only at 9.99 µM | hit rate 1.5% among 340,000 | AID 651658;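 active means melting point raised past a set limit in the mean and every replicate; three in four hits are not shown here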
# HNF4A DNA FP – change in binding of human HNF4 alpha to DNA. HNF4a-FITC DNA binding, fluorescence polarization, 1 h. P41235. activity change, % at 10 µM. hit rate 0.3% among 360,000; in the data active means activity change above about 30%, passing the limit was not always enough;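 further: controls were the assay level and a saturating level of protein; the project sought stronger binding though the title names inhibitors; some compounds called inactive have numbers as strong as hits; positive values seem to mean higher polarization but the record does not say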
# Numbers without * were called inactive; i = inactive; x = not tested or not shown.
SMILES,E coli growth,LANA-H2A inh,ALR inh,B2AR ag,UCH37 inh,FGF22 binding,HNF4A DNA FP
Cc1nnc(NC(=O)CSc2ccc([N+](=O)[O-])cn2)s1,0.67,-7.9,4,1,2.6,i,1.1
O=C1OCc2ccc(NC(=O)c3c(F)cccc3Cl)cc21,0.7,-8.5,4,-3,4.2,i,3.0
COC(CNC(=O)c1cc(-c2ccncc2)nc2ccc(S(=O)(=O)N3CCOCC3)cc12)OC,0.65,3.3,0,2,3.2,i,-0.4
FC(F)(F)c1cc(-c2cccs2)n[nH]1,0.68,-1.8,0,-11,3.4,x,-2.5
Nc1nnc(SCc2ccc([N+](=O)[O-])cc2)s1,0.67,5.6,-8,2,4.1,i,-1.7
CCOC(=O)Nc1cc(C(=O)OC)ccc1C,0.65,-0.4,-8,21,-0.1,x,6.0
COC(=O)c1ccc2c(c1)NC(=O)C(N1CCOCC1)S2 (centres undefined),0.66,-0.8,-3,4,1.1,x,1.7
COc1ccc(CC(NC(C)=O)C(=O)NC2CCN(C(=O)Nc3ccc(C#N)cc3)CC2)cc1OC (centres undefined),0.7,4.9,1,-1,-0.1,i,1.1
C=CCn1cnc2c(nnn2-c2cc(C)cc(C)c2)c1=O,0.72,-0.1,-5,-2,2.7,i,3.3
CC1CC(CC(=O)NNc2nc(-c3ccccc3)cs2)C(=O)O1 (centres undefined),0.69,2.6,x,-4,4.7,i,6.6
CC1CCCCC1N=CC1=C(O)CC(C)(C)CC1=O (centres undefined),0.68,6.4,-1,-3,-2.6,x,-0.8
COc1cc(C(=O)N(C)C2CCCN(Cc3ccccc3F)C2)cc(OC)c1OC (centres undefined),0.65,-2.9,x,-5,3.5,i,1.4
CCOc1cc(C(=O)N2CCOCC2)ccc1OCc1ccccc1,0.69,-0.9,-1,-4,0.2,x,-1.3
COc1ccc(-n2cnnc2SCC(=O)Nc2cc(S(=O)(=O)N3CCCCC3)ccc2C)cc1,0.74,x,x,1,-0.4,x,-0.5
O=C(Cc1ccccc1)NCC(=O)N1CCN(c2ccccc2F)CC1,0.67,-2.8,-18,6,2.8,i,-2.3
C=CCN(C(=O)CN1CCCCC1)c1nc(-c2ccccc2)cs1,0.66,1.0,-3,-6,2.3,i,-0.4
CCCNC(=O)c1noc2c1CCc1ccccc1-2,0.71,-1.5,-17,2,5.8,i,0.8
CC(=O)NS(=O)(=O)c1ccc(NC(=O)c2ccc(Cl)cc2[N+](=O)[O-])cc1,0.68,-0.1,-8,-5,4.5,x,-3.3
COc1cccc(/C=N/n2c(-c3ccco3)nc3ccccc3c2=O)c1OC,x,0.3,x,-14,x,x,0.1
CSc1ncc(Cl)c(C(=O)Nc2c(C)cccc2C)n1,0.69,2.7,0,-2,0.0,i,1.8
CN(Cc1ccccc1)C(=O)c1nc2ccccn2c1CN1CCC(N2CCOCC2)CC1,0.67,6.2,x,2,0.0,i,4.5
COc1ccc(C(=S)N2CCN(c3ccccc3C)CC2)cc1OC,0.7,x,x,-5,4.7,i,6.3
COc1ccccc1NS(=O)(=O)c1cccc(C(=O)NCC(C)(C)N2CCOCC2)c1,0.7,0.4,-6,1,3.2,i,-2.0
O=C(CSc1nnnn1Cc1ccccc1)c1ccc(F)cc1,0.71,-3.2,-1,-10,-0.9,i,1.0
FC(F)Oc1ccc(NC(=S)NCc2cccnc2)cc1,0.64,0.8,3,4,-0.8,i,0.3

# A draw from above in order of SMILES length, smallest number first:
SMILES,E coli growth,LANA-H2A inh,ALR inh,B2AR ag,UCH37 inh,FGF22 binding,HNF4A DNA FP
CCOC(=O)Nc1cc(C(=O)OC)ccc1C,0.65,-0.4,-8,21,-0.1,x,6.0
C=CCn1cnc2c(nnn2-c2cc(C)cc(C)c2)c1=O,0.72,-0.1,-5,-2,2.7,i,3.3
COC(=O)c1ccc2c(c1)NC(=O)C(N1CCOCC1)S2 (centres undefined),0.66,-0.8,-3,4,1.1,x,1.7
Cc1nnc(NC(=O)CSc2ccc([N+](=O)[O-])cn2)s1,0.67,-7.9,4,1,2.6,i,1.1
CN(Cc1ccccc1)C(=O)c1nc2ccccn2c1CN1CCC(N2CCOCC2)CC1,0.67,6.2,x,2,0.0,i,4.5
CC(=O)NS(=O)(=O)c1ccc(NC(=O)c2ccc(Cl)cc2[N+](=O)[O-])cc1,0.68,-0.1,-8,-5,4.5,x,-3.3
COC(CNC(=O)c1cc(-c2ccncc2)nc2ccc(S(=O)(=O)N3CCOCC3)cc12)OC,0.65,3.3,0,2,3.2,i,-0.4

# The listing continues.
SMILES,E coli growth,LANA-H2A inh,ALR inh,B2AR ag,UCH37 inh,FGF22 binding,HNF4A DNA FP
CCOc1ccc(C(=O)Cc2cc(OC)c(OC)cc2[N+](=O)[O-])cc1,0.72,2.9,-6,4,4.4,i,-0.6
NC(=O)C1CCN(c2nc(C3CC3)nc3c2nnn3Cc2ccccc2Cl)CC1,0.75,-7.0,-9,-2,-0.6,x,0.7
COc1ccc(-c2coc(CCC(=O)N3CCN(c4cc(C)ccc4C)CC3)n2)cc1,0.69,x,x,10,2.5,i,5.7
CCCCSc1nc(N)nc2c1ncn2C1OC(CO)C(O)C1O (centres undefined),0.63,x,x,x,1.6,x,-0.9
CC12CCC(c3c(CO)nn(-c4ccccc4)c31)C2(C)C (centres undefined),0.71,-5.9,1,2,3.2,x,3.6
NCC(=O)NCC(=O)NC[C@H]1O[C@@H](n2ccc(=O)[nH]c2=O)[C@H](O)[C@@H]1O,x,x,x,-2,x,i,1.4
O=[N+]([O-])c1ccc(N2CCN(CCOc3nonc3-c3ccccc3)CC2)c(Cl)c1,0.72,2.2,7,-3,5.4,i,-0.1
COc1ccc(-c2ccc3oc(-c4ccc(OC)cc4)c(C#CCCO)c3c2)cc1,0.67,-2.8,4,1,-36,i,3.2
Cc1ccc(C(=O)CCC(=O)CCC(=O)O)cc1,0.72,-7.0,0,3,-2.6,x,0.4
CCOc1ccccc1N(C)S(=O)(=O)c1ccc2c(c1)CC(C)N2C(=O)C1CC1 (centres undefined),0.66,3.7,-1,2,4.3,i,-2.9
CC1(C)CC(NC(=O)C2CCC(=O)N(C3CC3)C2)CC(C)(C)C1 (centres undefined),0.68,-3.0,0,-8,0.9,i,-6.7
CCCCN(C(=O)COc1ccc(NC(C)=O)cc1)C1CCS(=O)(=O)C1 (centres undefined),0.66,-1.3,1,5,2.9,i,1.4
Cc1[nH]c(C)c(S(=O)(=O)N2CCN(c3ccccc3F)CC2)c1C(=O)N1CCCC1,0.7,4.8,-5,0,-9.4,i,1.0
COc1ccc(C(=O)NNC(=S)NC(=O)c2ccccc2[N+](=O)[O-])cc1,0.62,-4.3,22,9,5.6,i,7.8
O=C(Nc1nnc(SCCN2CCOCC2)s1)C1CC(=O)N(c2ccc(F)cc2)C1 (centres undefined),0.72,3.2,-7,5,2.0,i,8.2
O=C(OCC(=O)N(Cc1ccccc1)C1CCS(=O)(=O)C1)c1cc2c(s1)CCCC2 (centres undefined),0.68,2.9,-10,-13,3.5,i,0.0
CCC1SC2=NC(C)=C(C(=O)OCC(C)C)C(/C=C/c3ccccc3OC)N2C1=O (centres undefined),0.69,5.0,-3,2,4.6,x,1.9
O=C(CN1C(=O)NC2(CCCCC2)C1=O)Nc1cccc2ncccc12,0.67,x,-8,-2,0.4,i,1.5
Cc1cc(NC(=O)c2ccc(F)cc2)n(CCOC(=O)c2ccc(F)cc2)n1,0.69,6.6,-39,4,5.1,i,-1.6
O=S(=O)(NCCc1ccccn1)c1ccc(OC(F)(F)F)cc1,0.66,-0.9,8,-3,1.0,i,-2.9
Cn1c2c(c(=O)n(C)c1=O)C(C(F)(F)F)(C(F)(F)F)N=C(CCC1CCCCC1)N2,0.62,2.1,-33,7,2.1,i,-2.3
Cc1cc(NC(=O)Cn2c(=O)n(CCCCC(=O)NC3CCN(Cc4ccccc4)CC3)c(=O)c3ccccc32)n[nH]1,0.7,-0.2,-3,x,6.5,i,x
O=C(COC(=O)c1cc2ccccc2oc1=O)c1cccc([N+](=O)[O-])c1,0.72,4.0,x,4,2.3,x,-2.0
CCN(C(=O)COC(=O)[C@H](C)N=C1NS(=O)(=O)c2ccccc21)C1CCS(=O)(=O)C1 (some centres undefined),0.69,x,x,2,0.4,i,1.8
Cc1ccc(N/N=C(\C#N)C(=N)N2CCOCC2)cc1,x,-7.3,98*,3,x,i,1.6

# Continuation:
SMILES,E coli growth,LANA-H2A inh,ALR inh,B2AR ag,UCH37 inh,FGF22 binding,HNF4A DNA FP
COCCNC(=O)c1nn2c(C(F)(F)F)cc(-c3ccccc3)nc2c1Cl,0.67,2.9,-13,-5,-6.2,i,-0.4
O=[N+]([O-])c1cccc(-c2noc3c2-c2nc(Cc4cccc5ccccc45)sc2CC3)c1,0.71,-5.1,-2,-5,0.3,i,1.9
Cc1ccc2c(c1)N(CCC(=O)NCc1ccc3c(c1)OCO3)C(=O)CO2,0.72,6.9,0,-5,5.9,x,1.5
Cc1ccc(-c2cc(Cc3ccccn3)c(=O)[nH]n2)cc1,0.71,-3.6,-4,-7,-4.5,i,0.7
O=C(NCCN1CCOCC1)c1cnn2c(-c3ccccc3)cc(-c3ccccc3)nc12,0.64,11,-2,5,-113,x,1.5
CC1CC(C)(C)NC(=S)N1CCCC(=O)N1CCN(c2ccc(F)cc2)CC1 (centres undefined),0.69,1.5,83*,-5,1.1,x,-2.5
CCN(C(=O)COc1ccccc1C(=O)NCc1ccccc1)C1CCS(=O)(=O)C1 (centres undefined),0.7,-6.0,11,-5,1.4,i,0.1
CCOC(=O)C1(Cc2ccc(Cl)cc2)CCN(C(=O)CCc2ccncc2)CC1,0.71,1.5,-9,10,5.2,i,0.8
CCCOc1cccc(C2/C(=C(/O)c3ccc(OC)cc3)C(=O)C(=O)N2CCN(C)C)c1 (centres undefined),0.69,-2.7,0,5,8.3,x,2.1
COc1ccc(C(=O)NCC(=O)Nc2ccccc2)cc1OC,0.71,-1.1,-4,12,0.7,x,-4.8
COc1ccc(N(C2CSC2)S(=O)(=O)c2ccccc2)cc1,0.7,-7.2,-1,-2,0.0,x,-4.3
CCOc1cc(CNc2ccc(N3CCCCC3)cc2)cc(Br)c1OCC(=O)NC(C)(C)C,0.71,6.6,32,6,1.7,x,-2.1
O=Nc1c(-c2ccccc2)[nH]n(-c2ccccc2)c1=O,0.69,-0.8,0,-3,9.5,i,0.3
O=C1NC(=S)N/C1=C/C=C/c1ccccc1,0.73,0.5,-6,0,-0.3,i,1.5
COc1cc(OC)c(N(C)S(=O)(=O)c2cccc(C(=O)Nc3nc(C)cs3)c2)cc1Cl,0.7,x,x,5,1.9,i,2.0
Cc1cccc(C)c1NC(=O)CN1C(=O)CCSc2ccc(S(=O)(=O)N3CCCC3)cc21,0.67,-3.5,-5,6,5.7,i,2.4
COc1ccc([C@@H]2[C@@H]3C(=O)N(C(C)(C)C)C(=O)[C@@H]3[C@]3(CC(C)C)C(=O)N(c4cccc(F)c4)C(=O)N23)cc1,x,4.8,-1,-11,4.6,i,-5.0
O=C(CCNS(=O)(=O)c1ccccc1)NNC(=O)C1COc2ccccc2O1 (centres undefined),0.63,2.2,x,6,0.8,i,-2.9
CN=C(C)/C(C(=O)OC)=C(/O)c1ccccc1F,0.65,1.0,x,-1,3.7,i,3.4
COC(OC)C(C)NC(=O)NC(=O)c1ccccc1Cl (centres undefined),0.65,0.3,-11,-2,0.7,i,-0.6
CC1CN(c2ccc([N+](=O)[O-])nc2)CC(C)O1 (centres undefined),0.73,1.6,-17,0,11,i,4.7
CCc1ccc(N2NC(=O)/C(=C/C=C/c3ccco3)C2=O)cc1,0.7,8.1,6,3,13,i,-1.9
CC(NC(=O)Cc1cccs1)C(c1cccs1)N1CCOCC1 (centres undefined),0.64,-5.9,-5,12,1.4,x,-1.1

# The list is partial; count on the stated rates, not on these rows.
